Screening results from PubChem BioAssay.
Vif A3G: inhibitors of Vif binding to APOBEC3G peptide, primary screen, biochemical, TR-FRET, GST-Vif 1-94, biotin-A3G peptide, dose response retest (AID 1117319); TR-FRET GST-Vif / biotin-A3G peptide binding; higher % means a stronger effect; test concentration not given here; strong numbers were not always called active; inhibition, %; hits with a dose series show IC50 in µM; 0.57% of 260,000 active;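 active = above the screen mean plus three standard deviations and confirmed in dose response; inconclusive = results disagree or hit not tested in dose response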;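 also: Vif residues 1-94 fused to GST binding biotinylated APOBEC3G peptide 110-148; 0% = full assay without inhibitor and 100% = GST in place of GST-Vif; retest series ran down from 100 µM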
HNF4A DNA FP: change in binding of human HNF4 alpha to DNA; P41235; HNF4a-FITC DNA binding, fluorescence polarization, 1 h; activity change, % at 10 µM; 0.3% of 360,000 active; in the data active = activity change above about 30%, passing the limit was not always enough;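 also: controls were the assay level and a saturating level of protein; the project sought stronger binding though the title names inhibitors; some compounds called inactive have numbers as strong as hits; positive values seem to mean higher polarization but the record does not say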
LANA-H2A inh: blocks KSHV LANA binding to histone H2A/H2B | cell-free LANA-H2A/H2B peptide, fluorescence polarization | inhibition, % (concentration not given with the values) | 0.6% of 320,000 active | AID 2629; in the data active = inhibition mostly above about 10%, no sharp cut-off; inactive = mostly below about 6.7%;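 also: stock transfer was 7.5 nL into about 10 µL; 0% = median of vehicle wells and 100% = median of positive control wells; one replicate is shown; the record names a cut of 25% in any replicate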
Target sequence (Q9QR71 whole entry, looked up): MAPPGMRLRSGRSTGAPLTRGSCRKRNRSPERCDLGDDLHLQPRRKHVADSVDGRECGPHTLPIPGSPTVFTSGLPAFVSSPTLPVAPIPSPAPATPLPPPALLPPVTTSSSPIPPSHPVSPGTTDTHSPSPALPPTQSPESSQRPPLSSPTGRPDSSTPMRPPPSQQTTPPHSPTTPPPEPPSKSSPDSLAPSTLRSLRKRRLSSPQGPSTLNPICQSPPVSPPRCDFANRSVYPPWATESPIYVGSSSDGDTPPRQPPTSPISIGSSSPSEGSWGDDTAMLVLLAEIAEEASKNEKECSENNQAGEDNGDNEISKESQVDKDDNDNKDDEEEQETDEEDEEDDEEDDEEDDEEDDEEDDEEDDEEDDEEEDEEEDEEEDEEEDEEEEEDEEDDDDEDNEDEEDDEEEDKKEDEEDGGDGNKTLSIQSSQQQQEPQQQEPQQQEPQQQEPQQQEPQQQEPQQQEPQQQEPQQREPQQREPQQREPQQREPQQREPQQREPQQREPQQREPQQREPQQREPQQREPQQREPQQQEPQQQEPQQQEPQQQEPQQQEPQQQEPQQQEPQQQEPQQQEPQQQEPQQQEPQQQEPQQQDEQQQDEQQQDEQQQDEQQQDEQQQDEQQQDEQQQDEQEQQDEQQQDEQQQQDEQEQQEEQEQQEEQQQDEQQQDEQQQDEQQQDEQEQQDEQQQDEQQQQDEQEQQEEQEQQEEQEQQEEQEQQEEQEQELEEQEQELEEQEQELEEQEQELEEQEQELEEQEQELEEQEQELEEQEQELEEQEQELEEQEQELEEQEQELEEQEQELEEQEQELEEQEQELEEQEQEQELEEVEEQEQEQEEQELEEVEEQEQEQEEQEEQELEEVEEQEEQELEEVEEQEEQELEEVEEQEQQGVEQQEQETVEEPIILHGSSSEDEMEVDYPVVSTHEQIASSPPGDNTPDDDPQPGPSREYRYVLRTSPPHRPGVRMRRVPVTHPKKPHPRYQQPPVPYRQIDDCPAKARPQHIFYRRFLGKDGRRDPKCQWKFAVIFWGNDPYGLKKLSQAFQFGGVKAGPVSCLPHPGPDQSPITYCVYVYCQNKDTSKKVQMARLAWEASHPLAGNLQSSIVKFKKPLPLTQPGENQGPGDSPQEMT
Ecoli growth: E. coli growth inhibition | Escherichia coli growth, OD600, 23 h; active compounds read low | OD600 absorbance (test concentration not listed) | 0.21% of 330,000 active | AID 1053175;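 active = OD600 absorbance below the run mean of sample wells minus 3.6 SD, in any replicate, cut at about 0.56 in these data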;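 also: stock transfer was 300 nL into about 60 µL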
UCH37 DUB inh: inhibitors of human deubiquitinating enzyme UCH37 | 0.33% of 330,000 active | AID 588478 | purified proteasome/UCH37, Ub-AMC cleavage fluorescence | inhibition, % (no concentration beside the values) | Q9Y5K5;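 active = mean of two replicates above 20%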;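 also: 0% = compound-free wells with enzyme and 100% = wells lacking proteasome; stock transfer was 100 nL into about 20 µL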
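Signal – fluorescence, ex 355 nm, em 460 nm · System – Proteasome-bound UCH37 · Input – 0.15 nM proteasome as dispensed · Timing – 30 min preincubation with enzyme, 25 min cleavage at room temperature · Read-out basis – percent inhibition of cleavage signal versus uninhibited and no-proteasome wells · Medium – Tris-HCl pH 7.4 with ATP-MgCl2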
Beta2AR agonist: agonists of human beta-2 adrenergic receptor inducing internalization; P07550; Am2.2-beta2AR cells, FAP receptor internalization, flow cytometry; reference of the scale not given here; response, % (concentration not given with the values); 0.43% of 340,000 active; AID 504454;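 active = response above a set limit, near 3 SD of response in nonfluorescent compounds, cut at about 42% in these data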;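 also: stock transfer was 100 nL into about 11 µL; a reference agonist was the positive control; negative values mostly stem from fluorescent compounds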
Bfl-1 A1 inh: inhibitors of the anti-apoptotic protein A1, read as caspase activation | AID 2462 | caspase activation, % (test concentration not listed) | MEF A1-2A-BIM cells, Caspase-Glo 3/7 luminescence, 3 h; percent of clofoctol response, vehicle zero | 0.066% of 330,000 active;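 active = over half of replicate activation scores above 10%, or exactly half above 10 with the replicate mean above 10; inconclusive = replicate mean below 10 yet half the replicates above 10; inactive = over half of replicates below 10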;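 also: wells of about 30 µL received 50 nL stock; many hits fall short of the cut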
An asterisk follows results filed as active; i = inactive; ? = inconclusive; · = no result given; & = joins results of further samples. Rows were taken by chance; overall some 2.1% were active at least once.

SMILES	Vif A3G	HNF4A DNA FP	LANA-H2A inh	Ecoli growth	UCH37 DUB inh	Beta2AR agonist	Bfl-1 A1 inh
O=C1/C(=C/c2cccnc2)SC(=S)N1c1ccc(O)cc1	-1%	4.0	-0.3	0.67	8.4	27	0.6
CSc1ccc(/C=N/n2c(Cc3ccc(Br)cc3)n[nH]c2=S)cc1	-2%	-6.2	4.2	·	·	2	0.3
Cc1nc(COc2cc3oc(=O)cc(C)c3cc2Cl)cs1	-3%	7.7	-9.1	0.66	-171	-8	-2.0
O=c1[nH]cc(-c2ccc(Br)cc2)n1Cc1ccccc1	-5%	-4.1	0.3	0.67	-3.8	-4	0.4
COc1ccccc1N1C(=O)CCC1(C#N)c1ccccc1 (stereo not drawn)	3%	1.3	-1.9	0.66	0.5	7	0.6
C#CCOCCOCCOCCNc1nc(N2CCN(C(=O)CCCCCCCCCCNC(=O)[C@H]([C@@H](C)CC)n3cc(CCCCN=C(N)N)nn3)CC2)nc(N2CCN(C(=O)CCCCCCCCCCNC(=O)[C@H](CO)n3cc(CCCCCN)nn3)CC2)n1	·	146	-57	·	4.8	52*	0.0
O=C(COc1ccc2ccc(=O)oc2c1)Nc1nccs1	-5%	-0.3	-4.8	0.71	-23	-7	-5.6
Cc1ccc(N=C2NC(=O)/C(=C/C=C/c3ccco3)S2)cc1	·	-0.1	5.3	0.72	3.8	12	-0.8
Cc1ccc(NC(=O)Cc2nc(-c3c[nH]c(C(=O)N4CCCC4)c3)cs2)c(C)c1	-7%	5.6	0.4	0.65	-1.7	-5	-1.2
COc1ccccc1NC(=O)CN(Cc1ccco1)C(=O)c1ccc(-n2nc(C)cc2C)cc1	4%&-3%	2.1	2.6	0.71	1.6	10	-0.3
Cc1ccc(OCC(=O)NCCCNC(=O)COc2ccc(C)cc2)cc1	·	-4.1	·	0.68	0.1	2	·
CCCn1c(=O)n(C)c(=O)c2c(SCc3cc(C(C)=O)ccc3OCC)nc(C3CC3)nc21	·	·	3.8	0.71	-0.8	·	-1.0
CC(=O)Nc1ccc2c(c1)nc(CCNC(=O)c1ccco1)n2C	·	-3.3	-1.7	0.68	2.3	2	-0.3
CC1(C)C(C(=O)O)N2C(=O)C(NC(=O)Cc3ccccc3)C2S1=O (stereo not drawn)	-6%	-1.9	6.0	·	·	4	2.0
CCCCn1c(N)c(N(CC)C(=O)c2cccc(S(=O)(=O)N3CCCc4ccccc43)c2)c(=O)[nH]c1=O	-1%	2.6	0.0	0.67	3.1	-5	0.4
CCN(CC)S(=O)(=O)c1ccc(O)c(C(=O)OCC(=O)Nc2ccc(OC(F)(F)F)cc2)c1	4%	2.1	2.9	0.71	-9.0	20	0.8
O=C1CCc2cccc(O)c2N1	7%	1.9	·	·	·	-6	·
Cc1cc(NC(=O)Cn2c(=O)c3c(ncn3CCC(C)C)n(Cc3ccccc3)c2=O)no1	0%&-11%	2.0	-5.6	0.71	2.1	-11	-0.3
Cc1nonc1C1CCCN1Cc1nc(-c2ccc(F)cc2F)oc1C (stereo not drawn)	·	0.9	-1.6	0.72	-1.5	-5	0.9
O=C1NC2(CCCCC2)Cc2ccccc21	5%	0.9	2.4	0.68	3.5	-3	0.2
CC(=O)Nc1cccc(NC(=O)CSc2nc(=O)n(Cc3ccccn3)c3c2CCC3)c1	-1%	-2.1	-1.2	0.67	5.3	-8	0.3
O=C(O)CCS(=O)(=O)c1nc(-c2cccs2)cc(C(F)(F)F)n1	-1%	-1.0	-2.2	0.69	1.3	-8	-0.7
Cc1cccc(OCC(=O)NCc2n[nH]c(=O)c3ccccc23)c1	-4%	-0.7	0.6	0.67	0.7	0	0.6
O=C1C(=O)N(CCCN2CCOCC2)C(c2ccc(Cl)cc2)/C1=C(\O)c1ccc2c(c1)OCCO2 (stereo not drawn)	·	-2.5	0.7	0.65	12	-1	0.0
O=C(CSc1nc2sc3c(c2c(=O)[nH]1)CCCC3)NCCO	9%	-0.8	2.8	0.73	-1.4	-5	1.4
COC(=O)C(C(=O)OC)C(C(C)C)C(C(=O)OC)C(=O)OC	5%	-0.7	2.5	0.79	-1.0	5	0.4
COc1ccc2c(C)c(Cl)c(=O)oc2c1	-3%	-2.8	-3.0	0.73	i	5	0.4
CCN(CC)c1nc(C)nc2c1sc(=S)n2C	·	1.6	-1.5	·	·	-5	1.0
O=C(COC(=O)C1CCC1)Nc1cccc(Cl)c1	4%	2.0	1.0	0.64	0.5	1	-0.9
Cc1ccc(O)c(/C=N/NC(=O)COc2ccc3c(C)cc(=O)oc3c2)c1	·	-3.9	-5.4	·	·	14	-1.2
COc1cccc(NC(=O)CC2COc3ccccc3O2)c1 (stereo not drawn)	13%	0.2	3.6	0.72	2.3	-1	0.4
Cc1sc2ncnc(N(C)Cc3ccco3)c2c1C	2%	-0.7	7.0	0.69	1.1	-3	-0.2
O=C(CCc1ccccc1)Nc1nnc(-c2ccc3c(c2)OCCO3)o1	1%	-1.3	-3.9	0.69	-0.4	7	-0.6
O=c1oc2ccccc2c(NCCO)c1[N+](=O)[O-]	-6%	3.6	-4.9	0.6	8.4	-4	-0.2
Cc1ccc(OCC(=O)Nc2ccc3c(c2)OCO3)c(C)c1	-7%	3.6	-1.0	0.68	0.7	-1	0.4
CCN(CC)C(=O)CSc1nc2ccccc2c(=O)n1OC(C)C	26%	-5.0	-7.4	0.64	0.5	-1	0.7
O=C1NC(=O)/C(=C/c2cccc3ccccc23)S1	2%	-2.1	-2.3	0.61	8.0	8	-0.8
Cc1ccc(SCC(=O)NCCc2ccccc2)cc1	-2%	-4.6	5.3	0.72	1.9	2	-0.7
O=C(COc1ccc(C(=O)c2ccccc2)cc1)NCC(=O)Nc1ccccc1Br	·	0.5	-0.6	0.68	0.9	-14	0.6
COc1cccc(CNc2ncn[nH]2)c1OCc1ccccc1F	5%	4.6	0.5	0.74	3.4	-3	-0.6
N#C/C(=C/c1ccc(OC(=O)c2ccc(Br)s2)cc1)c1nc2ccccc2[nH]1	-7%	-9.0	·	0.7	-2.8	2	·
S=C(NCCCN1CCOCC1)NC1CC1	19%	4.5	-2.8	0.69	5.7	5	0.3
O=C1CS/C(=N\N=C\c2ccco2)N1c1ccccc1	·	-0.2	-3.2	·	·	-6	-0.2
Cn1ccsc1=NC(=O)c1cc(S(=O)(=O)N2CCOCC2)ccc1F	6%	3.9	-1.4	0.66	5.2	0	0.8
CC1=C(C(=O)NCCc2ccc(C)cc2)C2(CCC(C)CC2)OC1=O (stereo not drawn)	-6%	0.8	-1.4	0.71	-0.3	-9	-0.2
CCOC(=O)c1cc(-c2ccc(C)cc2)n(CC(=O)NCc2ccco2)c1C	-4%	-2.7	-2.3	0.71	1.2	2	0.9
O=C(NCCCNC(=O)c1ccccn1)c1ccc(F)cc1	·	2.0	5.1	0.7	5.2	10	-1.4
CCCCn1c(N)c(N(CCOC)C(=O)c2sc3cc(F)ccc3c2Cl)c(=O)[nH]c1=O	0%	-2.2	-2.7	0.65	-3.2	-8	0.7
CCOC(=O)c1cnn(-c2ccccc2)c1-n1cccc1	3%	1.6	-3.6	0.7	-1.9	2	0.6
O=C(NCC1CCCO1)Nc1cccc(Cl)c1 (stereo not drawn)	1%	1.5	4.5	0.69	6.0	20	0.1
Clc1ccc(OCc2nnc3n2N=C(c2ccc4c(c2)OCCO4)CS3)c(Cl)c1	-4%	2.2	0.5	0.72	4.9	-3	-0.3
O=C(N/N=C/c1ccccc1Cl)c1[nH]c2ccc(Br)cc2c1-c1ccccc1	?	3.3	2.1	·	·	26	1.5
Cc1c(C)n(C)c2ccc(C(=O)NCCCN(C)C3CCCCC3)cc12	·	7.5	-1.7	0.69	1.1	3	-0.1
C/C(CC(=O)Nc1ccc(Br)cc1)=N\NC(=O)Cc1csc(N)n1	13%	2.5	·	·	·	1	·
COc1ccc(OCCN2C(=O)NC(C)(c3ccc(C)cc3)C2=O)cc1 (stereo not drawn)	15%	1.4	7.9	0.74	4.8	-3	-0.1
CCc1cccc(C)c1NC(=S)NCCc1c(C)[nH]c2ccc(C)cc12	3%	-0.4	-1.8	0.63	5.3	-5	0.0
CC1CCCN(S(=O)(=O)c2ccc(NC(=O)[C@@H]3CCCN3C(=O)c3cccs3)cc2)C1 (stereo partly drawn)	1%	-2.0	0.4	0.65	4.4	10	0.5
Cc1ccc(-c2csc(N(CCCN3CCOCC3)C(=O)c3ccco3)n2)cc1	-16%	1.9	·	0.74	-7.1	9	·
Cc1ccccc1C(=O)NCC(=O)NNC(=S)NC(=O)c1ccccc1	0%	-2.0	-0.7	0.65	0.6	7	0.2
COc1cc(CNC(C)C23CC4CC(CC(C4)C2)C3)cc(OC)c1OC (stereo not drawn)	-4%	2.5	-0.8	0.65	-0.7	4	0.4

Additional entries
SMILES	Vif A3G	HNF4A DNA FP	LANA-H2A inh	Ecoli growth	UCH37 DUB inh	Beta2AR agonist	Bfl-1 A1 inh
COc1ccc(/C=C(\NC(=O)c2ccc(C)cc2)C(=O)NCCCN2CCOCC2)cc1OC	·	2.0	3.5	0.66	6.3	-4	-0.8
Cc1cccc(Nc2ccccc2C(=O)OCC(=O)NCc2ccco2)c1C	17%	-3.8	-2.6	0.76	-31	4	-0.1
CC(C)OCCCNC(=O)C1CCC(=O)N1C(C)C (stereo not drawn)	16%	2.8	5.3	0.7	3.7	-5	0.4
Cc1[nH]n(S(=O)(=O)Cc2ccccc2)c(=O)c1N=Nc1ccccc1Cl	5%	-0.6	1.9	0.7	4.0	7	0.9
Cc1nnc(SC(C(=O)c2ccccc2)c2ccccc2)[nH]c1=O (stereo not drawn)	9%	-0.6	-2.9	0.71	2.6	-3	-0.1
COc1ccc(CNC(=O)c2cc(S(=O)(=O)N3CCCCC3)ccc2N2CCOCC2)cc1OC	·	3.1	·	0.7	3.6	-2	·
CCOc1c(C=C(C#N)C#N)c2ccccc2n1CC	2%	-2.6	-0.3	0.7	4.1	-9	-0.6
COc1cc2oc(=O)cc(-c3ccc(-c4ccc(C(F)(F)F)cc4)cc3)c2c(OC)c1OC	-15%	-2.1	·	0.73	-1.7	4	·
O=C(CC1C(=O)NCCN1C(=O)Nc1ccccc1)Nc1cc(Cl)cc(Cl)c1 (stereo not drawn)	·	4.5	5.5	0.66	6.7	3	0.6
CCCCNc1nnc(CCn2nc(C)c(Br)c2C)s1	0%	5.1	5.3	0.65	1.1	-3	0.3
COc1ccccc1NC(=O)N1CCCC1C(=O)NCc1ccc2c(c1)OCO2 (stereo not drawn)	5%	-2.0	-5.1	0.67	3.2	-3	0.2
Cc1cccc2sc(NC(=O)C3CC3)nc12	·	-0.2	1.7	0.63	1.2	0	0.5
CCc1nn(CCCC(=O)N2CCN(c3ccc(OC)cc3)CC2)c(=O)c2cc3occc3n12	·	-0.3	-1.1	0.66	2.1	-14	1.1
CCCCNC(=S)Nc1ccccc1F	17%	-3.3	-4.2	0.77	5.1	1	0.2
Cc1ccc(C(=O)Nc2ccccc2OC(F)F)cc1	0%	0.0	3.0	0.66	3.7	-1	-0.9
Fc1ccc(CNc2nc3ccccc3n3cnnc23)cc1	-10%	4.5	-2.3	0.72	-4.9	-31	0.4
CCc1nnc(NC(=O)CSc2nnc(Cc3ccccc3)n2-c2ccccc2)s1	0%&6%	-5.2	2.7	0.69	2.2	5	-0.2

Reprinted at random: 2 entries already listed.
SMILES	Vif A3G	HNF4A DNA FP	LANA-H2A inh	Ecoli growth	UCH37 DUB inh	Beta2AR agonist	Bfl-1 A1 inh
Cc1nnc(SC(C(=O)c2ccccc2)c2ccccc2)[nH]c1=O (stereo not drawn)	9%	-0.6	-2.9	0.71	2.6	-3	-0.1
CC(=O)Nc1cccc(NC(=O)CSc2nc(=O)n(Cc3ccccn3)c3c2CCC3)c1	-1%	-2.1	-1.2	0.67	5.3	-8	0.3
